RecA intein inh – Mtb RecA intein splicing inhibitors, primary screen, biochemical, fluorescence, HTS | Protein RecA (Mycobacterium tuberculosis (strain ATCC 25618 / H37Rv)), P9WHJ3 | cell-free RecA intein splicing | inhibition, %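 (about 9 µM by stock and volumes)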 | hit rate 0.75% among 290,000 | AID 2221, 2009; in the data active = inhibition above about 30%; inconclusive = no clear call, values can overlap the other calls;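 also: 0% = vehicle wells and 100% = reference inhibitor control wells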
Target sequence (P9WHJ3 whole entry, looked up): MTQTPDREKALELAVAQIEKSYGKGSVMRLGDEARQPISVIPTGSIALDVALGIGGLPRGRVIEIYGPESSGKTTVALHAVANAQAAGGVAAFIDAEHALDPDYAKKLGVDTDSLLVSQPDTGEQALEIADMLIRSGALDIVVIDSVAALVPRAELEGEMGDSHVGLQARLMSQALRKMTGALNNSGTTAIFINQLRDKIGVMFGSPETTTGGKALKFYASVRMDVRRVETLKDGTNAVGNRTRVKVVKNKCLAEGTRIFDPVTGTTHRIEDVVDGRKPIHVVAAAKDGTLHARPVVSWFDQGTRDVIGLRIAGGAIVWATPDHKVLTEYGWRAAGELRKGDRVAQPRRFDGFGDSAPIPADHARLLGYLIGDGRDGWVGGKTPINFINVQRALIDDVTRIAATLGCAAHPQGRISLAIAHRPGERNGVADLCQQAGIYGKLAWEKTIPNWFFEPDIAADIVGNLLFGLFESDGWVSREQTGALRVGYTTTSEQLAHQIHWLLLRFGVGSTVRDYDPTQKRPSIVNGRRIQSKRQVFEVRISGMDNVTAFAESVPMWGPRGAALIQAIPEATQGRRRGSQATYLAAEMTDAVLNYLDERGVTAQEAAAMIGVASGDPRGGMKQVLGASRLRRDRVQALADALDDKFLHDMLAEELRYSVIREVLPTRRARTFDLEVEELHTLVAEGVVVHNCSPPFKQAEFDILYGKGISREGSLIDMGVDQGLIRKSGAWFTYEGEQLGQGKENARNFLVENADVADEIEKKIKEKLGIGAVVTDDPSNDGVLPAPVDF
Arbovirus inh – antivirals against arbovirus infection, primary screen, cell-based, full library, 10K replicate subset; inhibition, % at 10 µM; arbovirus infection cell-based antiviral screen; hit rate 0.37% among 200,000;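 active = inhibition from about 30%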;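 also: bluetongue infection of BSR cells; cell survival read as ATP light after 72 h; 0% = infected wells without compound and 100% = uninfected wells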
Mtb growth – M. tuberculosis H37Rv growth inhibitors, H37Rv strain (AID 1626); M. tuberculosis H37Rv growth inhibition; higher % means a stronger effect; one-dose inhibition, % at 10 µM; IC50 in µM for titrated hits; hit rate 0.95% among 220,000;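 active = confirmed in a dose series; inconclusive = inhibition above 80% but not taken into the dose series; inactive = below 80% or under 30% at every dose of the series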;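 also: bacteria incubated seven days before Alamar blue readout; 0% = bacteria only wells and 100% = bacteria with antibiotic wells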
Mtb betalactam – beta-lactam sensitization of Mtb H37Rv, H37Rv; M. tuberculosis H37Rv growth with meropenem, percent inhibition; hits of this screen are not shown here; inhibition, % at 25 µM; hit rate 0.27% among 330,000; AID 434955, 2010;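 active = about 74% or more and at least 40 points above the plate without the antibiotic, then above 30% in a dose series; inconclusive = first-round hits that could not be retested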;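 also: growth measured after seven days incubation then overnight dye step; 0% = bacteria only wells and 100% = bacteria with antibiotic; twin plates without the antibiotic show which effects depend on it; some results filed as inactive read as strong as hits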
YopH inh – YopH tyrosine phosphatase inhibitors, primary screen, biochemical, fluorescence Ex485/Em525 | YopH tyrosine phosphatase [Yersinia enterocolitica] | inhibition, %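 (about 10 µM by stock and volumes)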 | hit rate 0.16% among 140,000 | AID 898, 2007;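 active = inhibition of 50% or more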;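 also: controls were vehicle for no effect and minimum signal wells for full effect; inactives centre near -20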
Arbovirus inh repeat – second read-out of Arbovirus inh, no call of its own (marks repeat the call); inhibition, %; measured here: 10K subset replicate screen; many hits read low in the repeat;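 first of two repeat runs on a subset; 0% = infected and 100% = uninfected wells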
Numbers without * were called inactive; ? = inconclusive; / = no result given; & = joins results of further samples. This is a subset, so the mix of outcomes need not match the whole.

SMILES	RecA intein inh	Arbovirus inh	Mtb growth	Mtb betalactam	YopH inh	others
N#Cc1c2n(c3c(=O)n(Cc4ccccc4)cnc13)CCCC2	-2.8	-11	3%	-1	-24
O=C(NCc1ccco1)c1nn(-c2ccccc2)c(=O)c2ccccc12	-0.7	3	1%	7	-26
COc1ccc(S(=O)(=O)N(CCCN2CCCC2=O)Cc2cc3cc(C)c(C)cc3[nH]c2=O)cc1	3.2	-2	-2%	/	-29
COc1ccc(CC(=O)O/N=C(\N)c2cccc([N+](=O)[O-])c2)cc1	1.0	8	14%	-2	-14
COC(=O)c1ccc(C(NC(=O)OCc2ccccc2)/C(F)=C/[C@@H](C)C(=O)NCc2ccc(OC)c(OC)c2)cc1 (some centres not stated)	/	-28	-13%	-2	-26
CCOc1ccccc1NC(=O)C(OC(=O)c1ccc(CC)cc1)c1ccccc1 (configuration not stated)	0.1	-4	1%	12	-33
CCC(CC)C(=O)Nc1nnc(S(=O)(=O)N2CCc3ccccc32)s1	-5.0	/	/	-3	/
CC(=O)NC1C(=O)N(CCN2CCOCC2)c2ccc(Br)cc21 (configuration not stated)	51*	/	/	1	/
Cc1ccc2cc(C(=O)O)c(C)nc2c1	-1.2	10	-7%	14	-98
CCOC(=O)C1=C(C)NC(C)=C(C(=O)OCC)C1	-4.6&-3.2	7	-7%&-6%	3&3	0
CC(=O)Nc1ccc2c(c1)CCCC2=O	-2.8	/	4%	-1	/
CCC(NC(=O)C1(C)CC1(Br)Br)c1ccc(C)cc1 (configuration not stated)	-0.3	-2	9%	2	8

Brought forward from above: seven compounds, then new ones.
SMILES	RecA intein inh	Arbovirus inh	Mtb growth	Mtb betalactam	YopH inh	others
CCOc1ccccc1NC(=O)C(OC(=O)c1ccc(CC)cc1)c1ccccc1 (configuration not stated)	0.1	-4	1%	12	-33
CCC(CC)C(=O)Nc1nnc(S(=O)(=O)N2CCc3ccccc32)s1	-5.0	/	/	-3	/
CC(=O)NC1C(=O)N(CCN2CCOCC2)c2ccc(Br)cc21 (configuration not stated)	51*	/	/	1	/
Cc1ccc2cc(C(=O)O)c(C)nc2c1	-1.2	10	-7%	14	-98
CCOC(=O)C1=C(C)NC(C)=C(C(=O)OCC)C1	-4.6&-3.2	7	-7%&-6%	3&3	0
CC(=O)Nc1ccc2c(c1)CCCC2=O	-2.8	/	4%	-1	/
CCC(NC(=O)C1(C)CC1(Br)Br)c1ccc(C)cc1 (configuration not stated)	-0.3	-2	9%	2	8
COc1ccc(CCn2c(=S)[nH]c3cc(C(=O)N4CCOCC4)ccc3c2=O)cc1OC	7.4	4	6%	-10	/
Cc1cc(C)c([N+](=O)[O-])cc1NCC(=O)N1CCN(c2ccccc2)CC1	2.0	-2	9%	0	/
Cc1ccc(CNC(=O)C2CCN(S(=O)(=O)c3c(C)noc3/C=C/N(C)C)CC2)cc1	-9.6	/	/	-3	/
COC(=O)c1ccc2c(c1)N(C)S(=O)(=O)c1cnc(SCC(=O)C(C)(C)C)nc1-2	1.1	/	-1%	-1	/
CC(C)(C)NC(=O)C(c1ccncc1)N(Cc1ccco1)C(=O)c1ccc(-c2ccccc2)[nH]1 (configuration not stated)	6.3	0	0%	0	/
COc1ccc(-c2csc3ncnc(N4CCN(c5ccccc5Cl)CC4)c23)cc1	15	/	/	79	/
O=C(O)C1OC(Oc2c(-c3ccc(O)c(O)c3)oc3cc(O)cc(O)c3c2=O)C(O)C(O)C1O (configuration not stated)	-3.3	2	-9%	-2	-57
CCc1nnc(NC(=O)c2ccc(S(=O)(=O)N(C)c3ccccc3)cc2)o1	-2.1	-20	?	70	/
CC1(C)CC(NC(=O)c2ccc(Cl)c(Cl)c2)CC(C)(C)N1	-2.2	/	/	-5	/
CCOc1cc(N2CCOCC2)c(OCC)cc1NC(=O)CSc1ncn[nH]1	-0.9	-3	2%	-6	/
COc1ccc2[nH]c3c(N4CCN(Cc5ccc6c(c5)OCO6)CC4)ncnc3c2c1	3.0	-27	4%	97	-39
O=S(=O)(Nc1nc2ccccc2nc1NCC1CCCO1)c1cccc(Cl)c1 (configuration not stated)	-2.5	/	1%	-4	/
CC(C)OC(=O)CSc1nnc(-c2ccncc2)n1N	1.0	8	-20%	-2	-57	Arbovirus inh repeat=3
O=c1c2ccccc2cnn1-c1ccc2ccccc2c1	1.6	-10	15%	-6	-16
Cc1ccc(NS(=O)(=O)c2cc(-c3n[nH]c(=O)c4ccccc34)ccc2C)cc1	-0.2	-18	9%	2	-5
Cc1cc(-c2cc(C(=O)O)c3ccccc3n2)c(C)s1	-1.0	7	0%	-6	/
O=C(NNC(=O)C1CC1)c1ccccc1[N+](=O)[O-]	-0.7	/	/	-14	/
COc1ccc(NC(=O)c2cc3cccc(OC)c3oc2=Nc2ccc(C(=O)O)cc2)cc1OC	0.4	31*	2%	/	/
CSc1nc2cc(S(=O)(=O)N3CCOCC3)ccc2s1	-2.4	2	11%	-4	22
Cc1cc(C)nc(SCc2nnc(SCC(=O)Nc3ccc(C)c(C)c3)n2Cc2ccco2)n1	3.9	-25	2%	-2	-18
CC(C)(C)c1ccccc1NC(=O)C1=COCCO1	1.8	/	/	-6	/
CCOc1ccc(S(=O)(=O)N(CC)CC)cc1NS(=O)(=O)c1ccc(F)c(F)c1F	-3.3	12	-10%	-4	-24
CCOC(=O)C1=CN(c2cccc(F)c2)C=C(C(=O)OCC)C1c1cc(OC)c(O)c([N+](=O)[O-])c1	-2.2	-20	0%	0	-35
Cc1occc1C(=O)N1CCC2(CC1)OCCO2	0.6	2	13%	1	-8
COc1cccc(C(=O)N2CCC(N3CC(C)OC(C)C3)CC2)c1 (configuration not stated)	-2.4	7	4%	-2	-13
CCOC(=O)c1c(N)sc(C(=O)Nc2ccccc2F)c1C	-0.9	-15	-3%	3	/
C/C(=N\NC(=O)c1ccccc1)c1ccc(-n2ccnc2)cc1	-3.9	-10	-9%	-3	-18
CCC(C)NC(=O)c1ccccc1-c1nc2ccccc2[nH]1 (configuration not stated)	3.1	4	-6%	3	/
Cc1[nH]c2ccccc2c1C(=O)CN1C(=O)C(=O)N(Cc2ccco2)C1=O	1.7	4	-3%	-10	/
O=C(NCCCN1CCCC1=O)c1c(O)nc2sccn2c1=O	0.9	/	/	-3	/
CCC(=O)Nc1c(C)nn(C(=O)CC)c1C	57*	-2	5%	-1	5
CCOC(=O)c1c(NC(=O)Cn2cnc([N+](=O)[O-])n2)sc2c1CCCC2	-2.5	-17	13%	3	-23
CC1(C)CC(=O)C=C(C(=O)N2CCCC(CCC(=O)NCc3ccccc3F)C2)O1 (configuration not stated)	1.3	0	7%	0	/
Cc1ccc(C(=O)Nc2ccc(Br)c(C(F)(F)F)c2)cc1	7.3	-23	10%	42	-48
NC(=O)c1c(N)sc(=S)n1CC1CCCO1 (configuration not stated)	-2.1	4	5%	-1	-42
CC(=O)Nc1ccc(S(=O)(=O)N(C)CC(=O)OCC(=O)N2CCCC2=O)cc1	-1.0	/	/	-3	/
CCCCOC(=O)c1nc[nH]c1C(=O)OCCCC	-0.4	24	-9%	-1	/
COc1ccnc(Oc2ccc(F)cc2)c1C(=O)N/C=N/OCc1cccc(F)c1	6.5	-6	5%	3	/
COc1c(Br)cc(Br)cc1/C=C1/C(=O)N=C(N)N1C	6.1	6	0%	-4	/
CCn1c(COc2ccc(Cl)cc2)nnc1SCC(=O)Nc1ccc2c(c1)OCCO2	-1.6	-3	1%	-7	-17
COc1ccccc1/C=C/C(=O)NNC(=O)c1cc(C)oc1C	1.0	/	/	-10	/
CCCS(=O)(=O)Nc1c(C(=O)OC)[nH]c2ccccc12	0.8	0	1%	5	-24
CCCCN(C)CCNC(=O)CN1C(=O)CSc2ccc(S(=O)(=O)N3CCCCC3)cc21	-5.2	/	/	5	/
COc1cccc(CNC(=O)CCCn2nc(C)c3c(C)n(-c4ccccc4)nc3c2=O)c1	1.0	/	/	3	/
Cc1cccc(NC(=S)NC(=O)CCc2ccccc2)c1	-2.5	-18	20%	75	-53
N=c1c2c(-c3ccccc3)c(-c3ccccc3)n(Cc3ccco3)c2ncn1CCN1CCOCC1	2.6	-43	-4%	22	3
CC1CCN(CCCNC(=O)c2n[nH]c(=O)c3ccccc23)CC1	-0.2	0	-3%	-8	-43
COc1ccccc1Nc1nc(-c2sc(NC(=O)C(C)(C)C)nc2C)cs1	4.5	-19	0%	2	-9
CCCOc1ccc(N2C(=O)CC(N(CCOC34CC5CC(CC(C5)C3)C4)C(C)=O)C2=O)cc1 (configuration not stated)	-2.4	8	2%	-11	/
CCNC(=O)Cc1ccc(Br)cc1	0.6	1	4%	-1	-1
O=C(Nc1cccc(C(=O)N2CCOCC2)c1)c1ncn[nH]1	0.1	8	-4%	3	-13
CCC(C)Nc1cc(C)c(C#N)c2nc3ccccc3n12 (configuration not stated)	-122	/	/	-3	/
O=C(O)COc1ccc(-c2nnn(Cc3ccccc3F)n2)cc1	-1.0	0	4%	64	-6
C/C=N\NC(=O)CNC(=O)CNC(=O)c1ccccc1	-0.5	4	-6%	-12	/
O=C(Nc1ccccc1)NC1(C(=O)NCc2ccco2)CCCCC1	-3.5	10	-14%	-1	-32
O=C1NC(=S)S/C1=C1\Sc2ccccc2N1CCCS(=O)(=O)O	-4.8	0	-7%	5	-36
CCn1nnnc1SCC(=O)N1CCOCC1	0.8	2	-4%	-5	-2
O=C(CCc1ccccc1)Nc1nc2ccc(S(=O)(=O)N3CCOCC3)cc2s1	1.8	-16	-4%	-4	-29
COc1ccc(OC)c(NC(=O)Cc2coc3cc(C)cc(C)c23)c1	3.2	14	3%	9	-4
Fc1ccc(N2CCN(Cc3ccccn3)CC2)cc1	-1.2	9	-3%	4	/

The results go on:
SMILES	RecA intein inh	Arbovirus inh	Mtb growth	Mtb betalactam	YopH inh	others
COCc1cc(C)nc2sc(C(=O)Nc3ccccc3C)c(N)c12	-11	/	/	6	/
Cc1nc(Nc2ccccc2F)c2oc3ccccc3c2n1	0.9	/	/	9	/
COc1ccc(CC2(CO)CCN(Cc3cccc4nccnc34)CC2)cc1	-2.6	-1	0%	-4	/
Cc1ccc(CNC(=O)CSCc2ccccc2)cc1	1.1	2	-5%	-4	/
O=C(NCC1CC1)c1onc(CSc2ccncc2)c1C(=O)NCC1CC1	-2.0	/	-2%	-3	/
CC1(C(=O)NCc2cccnc2)CCC(=O)N1Cc1cccs1 (configuration not stated)	-5.9	3	/	-1	-33	Arbovirus inh repeat=-1
O=C1CC(N2CCSCC2)C(=O)N1c1ccc(F)cc1 (configuration not stated)	8.5	/	-4%	-1	/
O=[N+]([O-])c1ccc(Oc2cccc(F)c2)c2ccncc12	73*	1	12%	-5	-5
COc1cc(/C=C(\C#N)C(=O)Nc2cccc(C(=O)O)c2)ccc1OCc1ccc(C)cc1	-14	/	/	56	/
NC(=O)Cn1c(=O)n(CCc2ccccc2)c(=O)c2c3c(sc21)CCCC3	0.9	1	4%	-1	-32
O=CN1CCN(C(=O)c2ccc3c(c2)OCO3)CC1	-2.0	/	/	2	/
N#Cc1ccc2ccn(CC(=O)N3CCCc4ccccc43)c2c1	1.4	0	4%	-4	-49
O=C(O)C1CCCCN1S(=O)(=O)c1ccccc1 (configuration not stated)	2.0	6	-1%	-3	-16
O=c1c(Cl)c(Nc2cccc(Cl)c2)cnn1-c1nc2ccccc2s1	0.7	7	8%	?	-9
COc1cccc(/C=N/NC(=O)c2ccc(N3CCCC3=O)cc2)c1	5.9	/	/	3	/
Cc1[nH]c2ccc(Br)cc2c(=O)c1CN1CCOCC1	-1.1	4	0%	-4	-11
Cc1ccc(-c2n[nH]c(=S)n2/N=C/c2c(C)nn(-c3ccccc3)c2C)cc1	-6.7	-21	5%	0	-13
O=C(O)Cn1nnnc1-c1ccc(F)cc1	0.1	3	-5%	-11	-28
CCOc1ccc(C(=O)N[C@H](C(=O)Nc2ccccc2OC)C(C)C)cc1	1.6	/	/	-8	/
Cc1ncsc1CCOC(=O)c1ccccc1	/	6	1%	0	/
CCN(c1ccc(OC)cc1)S(=O)(=O)c1nnc(NC(=O)c2ccc(C)cc2)s1	-2.6	/	/	0	/
COc1ccc(C(=O)O/N=C(\N)Cc2ccc(Cl)cc2Cl)cc1OC	7.0	-12	5%	36	-23
COc1cc(C(=O)Nc2nnc(CC(C)(C)C)s2)c([N+](=O)[O-])cc1OC	2.7	1	-2%	0	-25

Screens as filed in PubChem BioAssay.
